High-throughput results as filed in PubChem BioAssay.
ALR H2O2 inh: inhibitors of human sulfhydryl oxidase ALR; purified ALR, DTT oxidation, H2O2 HRP-luminol luminescence; P55789; 3.8% of 290,000 active; AID 485317; inhibition, % (test concentration not listed);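 active means mean and each replicate at 75% or more; inconclusive means only one of the two met; inactive means neither met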;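 further: stock transfer was 7.5 nL into about 7.5 µL; 0% = neutral wells and 100% = wells with inactivated enzyme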
Target sequence (P55789 whole entry, looked up): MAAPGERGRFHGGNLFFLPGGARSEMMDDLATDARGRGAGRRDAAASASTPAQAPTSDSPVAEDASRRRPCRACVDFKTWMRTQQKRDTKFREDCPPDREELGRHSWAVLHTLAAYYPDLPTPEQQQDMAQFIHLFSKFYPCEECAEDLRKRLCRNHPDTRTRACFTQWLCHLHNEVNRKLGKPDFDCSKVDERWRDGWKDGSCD
B2AR ag: activates human beta-2 adrenergic receptor causing internalization | P07550 | Am2.2-beta2AR cells, FAP receptor internalization, flow cytometry; reference of the scale not given here | response, % (no concentration beside the values) | 0.43% of 340,000 active | AID 504454;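 active means response above a set limit, near 3 SD of response in nonfluorescent compounds, cut at about 42% in these data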;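 further: stock transfer was 100 nL into about 11 µL; a reference agonist was the positive control; negative values mostly stem from fluorescent compounds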
Target sequence (P07550 whole entry, looked up): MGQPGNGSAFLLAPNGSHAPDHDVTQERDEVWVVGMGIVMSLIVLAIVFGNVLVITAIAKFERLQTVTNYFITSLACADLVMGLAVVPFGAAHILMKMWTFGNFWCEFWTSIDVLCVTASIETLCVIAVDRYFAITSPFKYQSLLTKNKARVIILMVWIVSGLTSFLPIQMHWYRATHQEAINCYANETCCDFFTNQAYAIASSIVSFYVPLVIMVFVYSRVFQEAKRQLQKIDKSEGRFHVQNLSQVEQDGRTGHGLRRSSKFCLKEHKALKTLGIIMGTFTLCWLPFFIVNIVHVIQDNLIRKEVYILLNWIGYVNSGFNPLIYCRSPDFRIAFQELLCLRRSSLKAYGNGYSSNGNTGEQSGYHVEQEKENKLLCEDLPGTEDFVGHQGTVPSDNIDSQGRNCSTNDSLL
LANA-H2A inh: blocks KSHV LANA binding to histone H2A/H2B; cell-free LANA-H2A/H2B peptide, fluorescence polarization; Q9QR71; 0.6% of 320,000 active; inhibition, % (no concentration beside the values); in the data active means inhibition mostly above about 10%, no sharp cut-off; inactive means mostly below about 6.7%;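 further: stock transfer was 7.5 nL into about 10 µL; 0% = median of vehicle wells and 100% = median of positive control wells; one replicate is shown; the record names a cut of 25% in any replicate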
Bfl-1 A1 inh: inhibitors of the anti-apoptotic protein A1, read as caspase activation; 0.066% of 330,000 active; MEF A1-2A-BIM cells, Caspase-Glo 3/7 luminescence, 3 h; percent of clofoctol response, vehicle zero; caspase activation, % (no concentration beside the values); AID 2462;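 active means over half of replicate activation scores above 10%, or exactly half above 10 with the replicate mean above 10; inconclusive means replicate mean below 10 yet half the replicates above 10; inactive means over half of replicates below 10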;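 further: wells of about 30 µL received 50 nL stock; many hits fall short of the cut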
Beta cell apopt: blocks beta cell apoptosis | INS-1E cytokine-induced death, ATP luminescence, 48 h; percent of positive-control rescue, neutral wells zero | 0.8% of 300,000 active | protection from apoptosis, % (test concentration not listed) | AID 435005;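 active means all replicates at 75% or more, or half of them and the mean; inconclusive means half reach 75% but not the mean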;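 further: 0% = cytokine-treated negative control wells and 100% = positive control rescue; higher means more ATP so stronger rescue from cytokine killing; wells of about 40 µL received 100 nL stock; the first replicate is given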
rRNA inh HTS: inhibitors of bacterial rRNA selective over humanized ribosomes. E. coli WT GFP vs humanized-ribosome RFP mutants, fluorescence, 24 h; active compounds read low; DMSO median 0, no signal -100. GFP signal change (wild-type ribosome), % (no concentration beside the values). 1.6% of 350,000 active;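 active means significant combined selectivity score with lowered wild-type GFP, culture density cut under 30%, mutant RFP and density less affected; inactive means any of these conditions unmet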; further: one replicate is shown; some compounds called inactive have numbers as strong as hits
T cruzi repl: blocks replication of Trypanosoma cruzi; T. cruzi beta-gal in NIH3T3, luminescence, 90 h; inhibition, % (concentration not given with the values); 1.4% of 300,000 active;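 active means mean inhibition across valid replicates above about 55%, limit read from the data; inconclusive means mean below that limit but half or more replicates reach it; inactive means mean below it, under half of replicates reach it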;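 further: signal also drops with host cell toxicity which is not excluded here; 0% = plate median of DMSO wells and 100% = zero luminescence signal; higher percent means less beta-gal luminescence so fewer parasites; stock transfer was 50 nL into about 50 µL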
Calb FLC: C. albicans growth modulation with fluconazole; C. albicans CaCi-2 (fluconazole-resistant clinical isolate) + fluconazole, Alamar Blue growth, 48 h; growth inhibition, % (no concentration beside the values); 0.57% of 300,000 active;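 active means most replicates above 75%; inconclusive means exactly half above 75%; inactive means most below 75%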;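 further: all wells also contain fluconazole at 8 µg/ml as a sub-toxic cotreatment; 0% = median of DMSO wells and 100% = median of geldanamycin control wells; wells of about 8 µL received 7.5 nL stock; the first replicate is given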
rRNA inh HTS OD600: second read-out of rRNA inh HTS, no call of its own (marks repeat the call); OD600 change, %; measured here: OD600 growth;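 optical density of the mix in the first replicate; 0 = DMSO median and -100 = no signal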
rRNA inh HTS RFP: second read-out of rRNA inh HTS, no call of its own (marks repeat the call); RFP signal change, %; measured here: RFP humanized mutant strains;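 first replicate; 0 = DMSO median and -100 = no signal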
An asterisk follows results filed as active; u = inconclusive; x = no result given.

SMILES	ALR H2O2 inh	B2AR ag	LANA-H2A inh	Bfl-1 A1 inh	Beta cell apopt	rRNA inh HTS	rRNA inh HTS OD600	rRNA inh HTS RFP	T cruzi repl	Calb FLC
Nc1nc(SCc2cccc([N+](=O)[O-])c2)n[nH]1	-4.5	-2.3	-1.0	-1.0	5.8	21.0	27.9	0.9	-23.7	-2.5
NC(=O)CC(NC(=O)Cc1ccc(Cl)cc1)c1ccc(NC2CCCCC2)c([N+](=O)[O-])c1 (centres undefined)	2.7	-3.9	-1.6	1.2	-11.4	2.4	7.3	19.6	-15.7	-5.2
C[n+]1cn(Cc2ccc(C#N)cc2)c2ccccc21	-5.7	-5.8	-15.3	0.5	-1.1	3.5	10.6	9.9	-5.9	0.1
Cc1ccc(C(=O)NC2CCN(S(=O)(=O)c3ccc(C)cc3)CC2)cc1	x	5.4	-2.3	-0.1	0.5	-3.9	8.1	-3.3	2.8	0.6
CN1CCN(C(=O)/C=C/c2ccc([N+](=O)[O-])cc2)CC1	4.7	-7.0	-1.9	0.2	-0.1	x	x	x	0.5	12.5
CC(C)COC(=O)C1C2C=CC3(CN(C4CCCC4)C(=O)C13)O2 (centres undefined)	-7.9	-0.8	6.0	-4.4	-1.8	11.7	6.4	-3.4	15.0	3.3
CCOC(=O)C1CCN(C(=O)c2ccc3c(c2)C(=O)N(c2ccccc2C)C3=O)CC1	-1.7	1.3	-0.3	0.4	x	-0.4	-0.7	1.0	-8.9	-2.6
CCOC(=O)c1c(C)[nH]c(C)c1C(=O)CSc1nc2ccccc2[nH]1	14.5	-3.8	0.0	0.7	x	x	x	x	12.8	3.6
O=C(Nc1ccc([N+](=O)[O-])cc1)C1CC1(c1ccccc1)c1ccccc1 (centres undefined)	x	5.3	-2.3	0.1	-6.4	x	x	x	42.1	-8.0
CCCn1c(=NC(C)=O)c(C(=O)OCC)cc2c(=O)n3ccccc3nc21	9.9	-14.3	2.3	-1.0	2.1	x	x	x	x	x
Cc1ccc(NC(=O)COC(=O)CNC(=O)c2ccc(C)s2)cc1	1.2	-0.1	-8.3	-0.9	-4.0	-3.8	-21.2	-3.3	-6.1	-7.0
Cc1cc(C)cc(OCC(=O)Nc2cc(C)on2)c1	-15.8	4.4	2.3	-0.8	-8.4	6.5	5.2	-6.5	-12.1	11.6

3 compounds out of the list above, arranged by the value under B2AR ag, descending.
SMILES | B2AR ag
Cc1cc(C)cc(OCC(=O)Nc2cc(C)on2)c1 | 4.4
CCOC(=O)C1CCN(C(=O)c2ccc3c(c2)C(=O)N(c2ccccc2C)C3=O)CC1 | 1.3
CCOC(=O)c1c(C)[nH]c(C)c1C(=O)CSc1nc2ccccc2[nH]1 | -3.8

Additional entries follow.
SMILES	ALR H2O2 inh	B2AR ag	LANA-H2A inh	Bfl-1 A1 inh	Beta cell apopt	rRNA inh HTS	rRNA inh HTS OD600	rRNA inh HTS RFP	T cruzi repl	Calb FLC
COc1ccccc1NC(=O)c1sc2nc(-c3ccco3)ccc2c1N	-4.3	-4.3	2.6	0.4	2.8	x	x	x	-0.7	-19.8
CC(Nc1ccc2ccccc2c1)C(=O)N/N=C/c1ccncc1 (centres undefined)	x	2.0	3.1	0.5	-8.4	x	x	x	x	x
O=C1CCCC2=C1C(c1ccsc1)CC(=O)N2c1ccccc1 (centres undefined)	-2.7	-7.8	-0.7	0.3	-3.9	x	x	x	9.3	1.6
CCC1=NN2C(=N)/C(=C/c3cc(C)n(-c4ccccc4)c3C)C(=O)N=C2S1	0.5	2.5	-15.6	1.0	-0.2	5.4	-0.4	20.6	-6.1	-0.7
Cc1ccc(C(=O)Nc2cccc3ncccc23)cc1[N+](=O)[O-]	9.0	-8.5	-1.9	0.1	4.1	4.5	5.1	1.9	-2.5	-8.1
COc1cc(/C=N/NC(=O)CC2C(=O)NN=C2C)ccc1O (centres undefined)	x	-2.8	3.7	-0.4	0.4	18.5	14.6	0.6	-8.0	16.1
CCOC(=O)C(CC(=O)O)N1CCCCC1 (centres undefined)	-0.2	3.9	-3.9	u	-0.2	x	x	x	-7.6	-0.3
COc1cc(OC)c(/C=N/NC(=O)c2ccc(NC(C)=O)cc2)cc1Br	x	5.1	x	x	x	7.7	7.6	1.7	-4.6	-8.4
CC(=O)c1cccc(NC(=S)N2CCN(CCN3C(=O)c4cccc5cccc(c45)C3=O)CC2)c1	-1.3	29.7	1.1	-0.6	48.1	16.3	12.2	-1.9	4.8	-17.0
Cc1[nH]c2ccccc2c1C(=O)CSc1nc2ccccc2c(=O)n1CCCN1CCOCC1	-6.7	21.1	12.1	1.1	-4.2	x	x	x	31.9	32.5
O=[N+]([O-])c1ccc(OCc2nnc(-c3ccccc3)o2)cc1	-5.6	3.2	3.0	0.0	-1.9	3.0	-1.4	-1.2	-20.4	-4.4
Cn1cnnc1SCC(=O)Nc1ccc(S(N)(=O)=O)cc1	93.5*	5.1	-1.2	0.3	-0.2	13.2	9.2	-1.2	-7.2	-8.4
COc1cccc(S(=O)(=O)NCc2ccc3c(c2)OCO3)c1	-2.9	0.5	1.1	0.2	0.6	-11.6	-15.5	-4.0	-18.4	-9.9
O=C(NCC1CCCO1)c1ccc(/C=N/O)nc1 (centres undefined)	-14.1	6.9	3.0	0.5	-4.8	x	x	x	-7.0	-1.8
Cc1cc(C)c(S(=O)(=O)N2CCN(C(=O)C(C)Cn3nc(C)nc3C)CC2)c(C)c1 (centres undefined)	0.0	-1.5	1.5	0.5	-1.8	1.8	-3.0	-3.0	5.3	-9.3
COc1ccccc1N1CCN(C2CCCN(C(=O)c3snnc3C)C2)CC1 (centres undefined)	26.7	-3.5	-1.1	-0.2	-4.1	7.7	16.1	-0.1	-38.7	-1.9
CCN(CC)CCN(C(=O)c1ccc(CN2CCCCC2)o1)C(C(=O)NC1CCCCC1)c1ccc(F)cc1 (centres undefined)	-3.0	5.3	-0.4	1.7	-2.9	9.5	5.6	2.2	16.6	-1.9
Cc1ccccc1-c1nc(CS(=O)(=O)CC(=O)NCCN2CCCC2)c(C)o1	-3.8	3.9	-1.1	-0.7	2.6	13.8	0.8	4.7	-23.1	-3.9
Cc1ccc(S(=O)(=O)c2ccc(C)cc2)cc1	-5.2	-4.3	1.4	-0.2	-0.1	-1.5	-5.3	3.1	5.8	6.2
COc1ccccc1C(=O)NCCC(=O)Nc1ncccc1O	-0.7	-12.4	-5.0	0.6	-2.2	16.8	23.0	6.6	1.2	-4.7
O=C(CSCCO)Nc1cccc([N+](=O)[O-])c1	-3.7	1.4	4.7	1.3	-2.0	x	x	x	-2.6	-4.7
COc1cccc2cc(/C(=N/O)c3ccc(Br)cc3)oc12	-2.8	5.5	4.5	0.6	5.3	-17.9	-15.3	-3.2	17.0	2.7
Cc1cc(OCCN2CCN(S(=O)(=O)c3ccccc3F)CC2)ccc1C(C)C	x	0.4	11.2	0.6	1.9	-1.0	-11.0	1.5	x	x
O=C(Nc1cccc(O)c1)c1cccc(S(=O)(=O)N2CCCC2)c1	2.3	3.1	9.3	-4.2	x	x	x	x	1.4	-3.1

ALR H2O2 inh, entries above that show a hit.
molecule,ALR H2O2 inh,B2AR ag,LANA-H2A inh,rRNA inh HTS,rRNA inh HTS OD600,rRNA inh HTS RFP
Cn1cnnc1SCC(=O)Nc1ccc(S(N)(=O)=O)cc1,93.5*,5.1,-1.2,13.2,9.2,-1.2

Following part:
SMILES	ALR H2O2 inh	B2AR ag	LANA-H2A inh	Bfl-1 A1 inh	Beta cell apopt	rRNA inh HTS	rRNA inh HTS OD600	rRNA inh HTS RFP	T cruzi repl	Calb FLC
Nc1ccc(Cl)c(S(=O)(=O)Nc2ccccc2Cl)c1	x	3.2	0.4	0.8	0.1	3.3	13.0	23.5	-2.1	-0.2
Cc1ccc(-c2cc(C(=O)Nc3cccnc3)c3ccccc3n2)o1	-14.3	8.5	0.4	-1.0	0.5	4.2	-2.4	-2.5	-6.2	-14.6
O=C(O)CCCN1C(=O)C(=O)/C(=C(/O)c2ccc(Cl)cc2)C1c1ccccc1 (centres undefined)	-1.4	13.9	-7.4	0.1	-0.7	11.2	6.5	-1.4	3.7	-7.3
CC(=O)c1ccc(NC(=O)CSc2cn[nH]n2)cc1	-1.2	1.1	3.9	0.6	1.0	-5.0	2.9	-2.7	2.3	0.7
Cc1cc(C(=O)Nc2cccc(O)c2)co1	30.9	0.5	0.7	-1.8	2.8	x	x	x	-1.0	-1.8
CCOC(=O)C1CCCN(C(=O)C2CCN(c3nnc(-n4cccc4)s3)CC2)C1 (centres undefined)	-7.8	-5.5	0.8	u	-0.7	7.1	-2.2	3.1	25.6	2.5
COCCCNC(=O)C1c2ccccc2Oc2ccccc21	-1.8	-5.8	1.2	-0.5	x	-5.9	-2.5	0.3	14.8	-9.1
CCOC(=O)c1c(C)[nH]c(C(=O)CN2C(=O)NC(C)(c3ccc4ccccc4c3)C2=O)c1C (centres undefined)	-11.0	-1.3	-1.6	0.3	0.6	x	x	x	42.8	34.8
CSCC[C@H](NC(=O)c1cccnc1)c1nnc2ccccn12	0.9	4.7	-6.6	-0.2	0.1	4.1	3.2	-6.3	-8.3	x
CCn1c(SCc2nc3ccccc3[nH]2)nnc1-c1cccnc1	-0.5	-2.4	-1.6	0.1	-5.4	x	x	x	-10.1	31.5
Cc1nc2sc3c(c2c(=O)o1)CCC3	3.0	4.9	-4.9	0.1	x	x	x	x	-3.8	-1.2
COc1cccc(CNC(=O)CCC2CCCN(C(=O)c3cc4ccccc4o3)C2)c1 (centres undefined)	-17.1	-2.3	1.3	-6.2	2.3	-32.3*	-6.8*	-3.9*	10.9	-12.6
Cc1cc(C)nc(NS(=O)(=O)c2ccc(NC(=O)c3cc(=O)c4ccccc4o3)cc2)n1	2.0	-3.2	2.8	-1.0	0.5	-4.0	1.4	3.9	-13.2	-12.3
CCC(SCC(=O)OC)C(=O)Nc1nnc(C(C)C)s1 (centres undefined)	0.7	6.9	-3.1	1.3	-0.3	6.0	7.4	-8.9	9.2	-3.1
Cc1cc(NC(=O)CS(=O)(=O)c2cn(Cc3cccc(F)c3)c3ccccc23)no1	x	-3.2	1.2	0.0	-4.4	x	x	x	7.4	6.9
CCC(=O)Nc1cc(C)c(NC(=O)CCc2ccccc2)cn1	-4.1	0.5	-0.6	0.0	3.8	x	x	x	2.3	-2.6
Cc1ccc(NC(=S)NNc2ncc(C(F)(F)F)cc2Cl)c(C)c1	6.1	-1.8	2.8	-0.9	3.9	x	x	x	-18.7	1.8
N#C/C(=N\Nc1ccc(Cl)cc1)C(=O)c1ccccc1	x	28.4	4.0	-0.9	98.8*	x	x	x	-5.7	25.7
COC(=O)c1cc(S(=O)(=O)N2CCN(c3cccc(C)c3C)CC2)c[nH]1	-4.2	8.4	-7.7	0.3	-0.4	-56.6	-75.1	-16.6	7.5	15.3

These rows are one share of the data; count on the stated rates, not on these rows.
